# Compound activity: PubChem, National Center for Advancing Translational Sciences (NCATS)
# VDR inhibitor – inhibitors of human vitamin D receptor. Potency, µM, without a hit: max response, negative = inhibition, usual class: inhibitors. AID 504847. 400,000 compounds, 0.93% hits. P11473. VDR-SRC2-3 peptide fluorescence polarization, 2 h; active means well fitted inhibition curve with a large enough effect; inconclusive means small, poorly fitted or top-dose-only effect, or another doubt; inactive means no such curve, though single readings can be large or run the other way; further: series mostly up to about 120 µM
# Target sequence (P11473 whole entry, looked up): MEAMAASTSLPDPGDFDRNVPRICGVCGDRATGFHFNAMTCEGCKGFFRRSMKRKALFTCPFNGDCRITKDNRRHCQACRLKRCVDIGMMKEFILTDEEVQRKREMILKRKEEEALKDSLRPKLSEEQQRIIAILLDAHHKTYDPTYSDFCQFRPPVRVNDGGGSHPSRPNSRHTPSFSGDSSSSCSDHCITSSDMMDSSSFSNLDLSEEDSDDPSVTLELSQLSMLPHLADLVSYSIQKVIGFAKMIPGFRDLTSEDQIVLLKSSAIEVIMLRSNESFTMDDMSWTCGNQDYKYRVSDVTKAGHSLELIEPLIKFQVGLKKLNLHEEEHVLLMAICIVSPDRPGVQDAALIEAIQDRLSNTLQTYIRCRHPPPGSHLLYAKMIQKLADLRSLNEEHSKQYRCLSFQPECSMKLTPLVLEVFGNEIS
#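 Inhibition of the VDR/SRC2-3 peptide interaction is quantified by fluorescence polarization. Compounds (23 nl, pintool) incubate with the reagents for 2 hours at ambient room temperature.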
# Active calls of the source: *; ? = inconclusive; & = joins results of further samples; ! = not confirmed by another sample. On the % scale 0 is the no-effect control and ±100 the full control effect; potency means the concentration at half of the fitted maximal effect. The list is partial; rates above refer to the full screens.
SMILES,VDR inhibitor
Cc1onc(-c2c(Cl)cccc2Cl)c1C(=O)Nc1ccc2c(C(F)(F)F)cc(=O)oc2c1,-1%
CN(C)CP(=O)(Nc1ccccc1)N(C)C (configuration not stated),-1%
C/C=C1/CN2CC[C@]34C(=C(C=O)[C@@H]1C[C@H]23)Nc1c(O)cccc14,1%
O=C(CN1C(=O)COc2ccccc21)N1CCC2(CC1)OCCO2,1%
CCc1cccc(CC)c1NC(=S)N1CC2CC(C1)c1cccc(=O)n1C2 (configuration not stated),8%
COc1ccc(Br)cc1CN1CCN(C(=O)Cc2ccccc2)CC1,-2%
CN1CCc2c([nH]c3ccccc23)C1,-17%
C=CCCC1(C2=CCCCC2)C(=O)NC(=O)NC1=O,-14%
C=CCn1c(O)c(/C=N/N2CCOCC2)c(=O)[nH]c1=S,-15%
CCCCCCCCOC(=O)c1ccccc1C(=O)OCCCCCCCC,9%
CNCC/C=C\c1cccnc1,0%
O=C1N(c2ccccc2)C(c2cccnc2)N2CCCN12 (configuration not stated),22%
O=c1oc2ccccc2c(O)c1C(c1ccccc1O)c1c(O)c2ccccc2oc1=O,?
CCCCN(Cc1ccccc1)C1CCN(CCc2ccccc2)CC1,-11%
COC(=O)C(O)(c1ccc(N(C)C(=O)c2cccs2)cc1)C(F)(F)F (configuration not stated),50µM*
CCCC(=O)N(C)C1=Nc2ccc(Cl)cc2C(c2ccccc2)=[N+]([O-])C1,-15%
CCS(=O)CCSP(=O)(OC)OC (configuration not stated),?
O=C(NCc1ccc(C(=O)N2CCC3(CC2)OCCO3)cc1)c1ccc2c(c1)OCO2,2%
Cc1cccc(C)c1OC(=O)Cc1ccccc1,-7%
CCN1CCN(CC(c2ccccc2)c2ccccc2)CC1,0%
O=C(CN1CC(c2ccccc2)CC1=O)Nc1cccc(F)c1 (configuration not stated),-10%
COc1ccc(C2CN(C)CC2C(=O)c2ccc(F)cc2)cc1Cl (configuration not stated),-5%
CC(=O)NC1=C(N2CC2C)C(=O)C(NC(C)=O)=C(N2CC2C)C1=O (configuration not stated),-4%
N#CC(C#N)=Cc1ccc(O)c(O)c1,50µM*
Cc1ccc(-c2nc(CN3C(=O)CN=C(c4ccccc4)c4cc(Cl)ccc43)c(C)o2)cc1,7%

# (more compounds)
SMILES,VDR inhibitor
Cc1ccc2c(c1)C1CN(C)CCC1N2C(=O)/C(C#N)=C/c1ccc2c(c1)OCO2 (configuration not stated),-5%
Cc1cccc(-n2c(C)nc3ccc(Cl)cc3c2=O)c1,2%
Cc1ccc2c(CN3CC=C(c4ccccc4)CC3)cc(=O)oc2c1C,-9%
CC(C(=O)Nc1ccc(Cl)cc1Cl)N1CC=C(c2ccccc2)CC1 (configuration not stated),-6%
CCC(C)C(=O)OC1C[C@@]2(C)C(c3ccoc3)OC(=O)CC23OC2(C)OC34C(OC(=O)C(C)C)[C@]3(O)C(OC(=O)C5(C)OC5C)[C@]5(C)CC3(O)[C@](C)(C5CC(=O)OC)C14O2 (some centres not stated),-3%
O=c1[nH]c(=O)n(-c2ccc(Cl)cc2)c(O)c1C=NCCN1CCCCC1,1%
C[C@]12CCC(=O)C(O)=C1CC[C@@H]1[C@H]3CCC(=O)[C@@]3(C)CC[C@@H]12,-17%
O=c1c(O)c(-c2ccc(O)c(O)c2)oc2c(O)c(O)cc(O)c12,25µM*
Cc1ccc(-n2c(O)c(C=NC3CCCCC3N)c(=O)[nH]c2=O)cc1C (configuration not stated),9%
CCOP(=O)(OCC)C(O)c1ccc(N(C)C)cc1 (configuration not stated),6%
CCOc1ccccc1OCC(=O)Nc1ccc(Cl)cc1C(=O)c1ccccc1,-13%
O=C1NC(=S)NC(=O)C1=Cc1ccc(OCc2ccccc2)cc1,40µM*
COc1ccc(-c2nn3c(=O)cc(CN4CCN(C(=O)COc5ccc(F)cc5)CC4)nc3s2)cc1,7%
COC(=O)C1=C(c2cccc(Cl)c2)C[C@@H]2CC[C@H]1N2C(=O)NCC1CC1,-6%
N#CC1(c2ccccc2)CCN(C2CC(=O)N(c3cccc(F)c3)C2=O)CC1 (configuration not stated),-2%
O=C(Cc1ccccc1)OC(COCc1ccccc1)CN1CCOCC1 (configuration not stated),4%
Cn1cc(C(=O)OCC(=O)Nc2ccccc2)c2ccccc21,5%
COC(=O)C1=C(c2ccc(Cl)c(C(F)(F)F)c2)C[C@@H]2CC[C@H]1N2C(=O)NCc1cc(C)oc1C(F)(F)F,-22%
COc1ccc(OC)c(CN2CCN(C(=O)Cc3ccccc3)CC2)c1,?
O=c1[nH]cc(N(CCCl)CCCl)c(=O)[nH]1,18µM*
C=C(C)[C@]12C[C@@H](C)[C@@]34O[C@](Cc5ccccc5)(O[C@@H]1[C@@H]3C=C(COC(=O)Cc1ccc(O)c(OC)c1)C[C@]1(O)C(=O)C(C)=C[C@@H]41)O2,-13%
C=CCN1C[C@@H](C)N(C(c2ccc(C(=O)N(CC)CC)cc2)c2cccc(OC)c2)C[C@@H]1C (some centres not stated),-1%
CCOc1ccc(CN2C(=O)c3ccccc3Sc3ccc(C(=O)N4CCC5(CC4)OCCO5)cc32)cc1,?
O=c1c2ccccc2nc(-c2ccccc2)n1-c1ccccc1,-16%
ClCCN(CCCl)c1ccc(C=NNc2ncccn2)cc1,-8%

# Further structures follow:
SMILES,VDR inhibitor
CCCCC/C=C\C/C=C\C/C=C\C/C=C\CCCC(=O)NCCCl,27%
CCN1CCN(c2ccc(NC(C)=O)cc2Cl)CC1,-12%
CN1C(=O)C(=Cc2cc([N+](=O)[O-])ccc2N2CCCCC2)C(=O)N(C)C1=O,3%
O/N=C1\CCC2CN(C3CCCCC3)CC2C1 (configuration not stated),19%
CN1CCc2nc(SCC(=O)OC(C)(C)C)c(C#N)cc2C1,-5%
O=c1[nH]c(=S)n(-c2ccccc2Cl)c(O)c1C=NCCN1CCNCC1,0%
CCSc1nnc([C@@H](N)Cc2c[nH]c3ccccc23)o1,-1%
COC(=O)C1=C(c2ccc(F)cc2F)C[C@@H]2CC[C@H]1N2C(=O)NCc1ccc(F)cc1,-16%
C[C@]12CC[C@@H](O)C[C@@H]1CC[C@@H]1[C@@H]2CC[C@]2(C)C(=O)CC[C@@H]12,2%&2%
CC[C@@H](CO)NC(=O)[C@@H]1C=C2c3cccc4c3c(cn4C)C[C@H]2N(C)C1,28µM*!
CC(C)N1OC2CC1c1nc3ccccc3n1C2 (configuration not stated),-9%
CCCC(C)C1(CC)C(=O)NC(=O)NC1=O (configuration not stated),5%
CN(C)C1=C(C#N)C(c2ccccc2)=NP(N(C)C)(N(C)C)=N1,-6%
COc1cc2c(c(OC)c1OC)-c1ccc(C(=O)O)cc1[C@@H](NC(C)=O)CC2,-15%
CC(=O)Nc1ccc(OC(=O)N2CCCCC2)cc1,7%
O=C1CN=C(c2ccccc2)c2ccccc2N1,6%
O=c1[nH]c(=O)n(-c2ccccc2)c(O)c1/C=C/C=Nc1ccccc1,2%
CC(C)CCON=O,-14%
COc1ccccc1NC1=NCCS1,-15%
CCCN(CCC)C1CCc2ccc(O)cc2C1 (configuration not stated),2%&3%
CS(=O)(=O)NNP(=O)(NNS(C)(=O)=O)NC(=O)c1ccc(Br)cc1,10%
CC/C(=N\N1CCN(C)CC1)c1c(O)[nH]c(=O)[nH]c1=O,?
Cc1cc(NC(=O)CCC(=O)N2CCC3(CC2)OCCO3)no1,13%
CC(=O)OCOCC(=O)OCO[P+](=O)C(OCOC(C)=O)c1cc([N+](=O)[O-])ccc1Oc1ccc(Br)cc1 (configuration not stated),3%
O=C1CCc2cccc3c2N1CC3,-1%

# (list continues)
SMILES,VDR inhibitor
O=C(CN1CCOCC1)c1ccc2cc[nH]c2c1,-4%
CC12CC[C@H]3[C@@H](CCC4(O)C[C@H](O)CCC34/C=N/NC(=O)c3ccccc3[N+](=O)[O-])C1(O)CCC2C1=CC(=O)OC1 (some centres not stated),14%
C=CCN=C=S,4%
O=[N+]([O-])c1ccccc1CNCCc1ccc(F)cc1,12%
Oc1ccc(Cl)c(Cl)c1,-1%
COC(=O)C1=C(c2ccc(Cl)c(C(F)(F)F)c2)C[C@@H]2CC[C@H]1N2C,-14%
COc1cc(O)cc2c1C(=O)O[C@@H](C)CCCC(=O)CCCCC2,-21%
O=C(CN1CC(c2ccccc2)CC1=O)NCc1ccc(F)cc1 (configuration not stated),-17%
C=CCN1CC[C@]23c4c5ccc(O)c4OC2C(=O)CC[C@@]3(O)C1C5 (some centres not stated),-20%
CCOc1ccc2nc(N=Nc3c(O)[nH]c(=O)[nH]c3=O)sc2c1,-21%
CCCCCCC[n+]1ccc(-c2cc[n+](CCCCCCC)cc2)cc1,-14%&8%
CC(=O)N1N=C2C3CCN(CC3)C2C1c1ccc(C)cc1 (configuration not stated),-10%
CN1C(=O)c2ccccc2NC(=O)C1Cc1ccccc1 (configuration not stated),6%
COc1ccc(-n2nc(C(=O)NCC(=O)N3CCC4(CC3)OCCO4)c3ccccc3c2=O)c(OC)c1,5%
Cc1cc(Oc2ccc(C(F)(F)F)cc2[N+](=O)[O-])c2c3c(c(=O)oc2c1)CCCC3,-10%
COc1cc(CC2(CCc3ccncc3)C(=O)NC(=O)NC2=O)cc(OC)c1OC,14%
CC1C=CCCC12C(=O)NC(=O)NC2=O (configuration not stated),-10%
CCOC(=O)C(O)(c1ccc(N)c(OC)c1)C(F)(F)F (configuration not stated),-22%
COc1ccc(-n2c(O)c(C(C)=NCc3ccco3)c(=O)[nH]c2=O)cc1,-7%
CSc1nc(Cl)c(Br)c(N2CC2)n1,?
CC1([N+](=O)[O-])COP(=O)(Nc2ccccc2F)OC1 (configuration not stated),1%
CCOc1ccccc1CN1CCCC(C(=O)c2cc(F)ccc2F)C1 (configuration not stated),-5%
CN1CCN(c2c(F)cc([N+](=O)[O-])c(N)c2Br)CC1,-13%
CC(C)(C)N1CC(C(=O)c2ccccc2)C1c1ccccc1 (configuration not stated),-28%
O=C(c1cc(-c2ccncc2)nc2ccccc12)N1CCC2(CC1)OCCO2,-3%

# Next structures:
SMILES,VDR inhibitor
Cc1ccccc1-n1c(C)nc2sccc2c1=O,-7%
COc1ccc(N2C(=O)NC(=O)/C(=C\c3ccc([N+](=O)[O-])s3)C2=O)cc1,71µM*
O=[N+]([O-])/C=C1\NCCN1Cc1ccc(Cl)nc1,4%&-6%
O=C1NC(=S)N(c2ccccc2)C(=O)C1C(c1ccncc1)C1C(=O)NC(=S)N(c2ccccc2)C1=O (configuration not stated),-8%
Cc1cc(C(=O)CN2CCCC2)c(C)n1-c1ccc(F)cc1,-6%
N=C1c2ccccc2CN1c1cccc([N+](=O)[O-])c1,-1%
O=c1[nH]c2ccccc2c(=O)n1-c1ccc(Cl)c(Cl)c1,-25%
Cc1cc(O)c2c(c1)C(=O)C13C(=C2O)C(=O)[C@H]2[C@@H](O)[C@@H]1[C@H]1[C@H](O)[C@@H]3C(=O)C3=C(O)c4c(O)cc(C)cc4C(=O)C312 (some centres not stated),-10%
C[C@@H](Cc1ccccc1)NCCC(c1ccccc1)c1ccccc1,9%
CC(=O)OC1CC2C(C)(C)C(O)C=C[C@@]2(C)C2CC[C@]3(C)C(=CC(=O)OC3c3ccoc3)[C@]12C (some centres not stated),25µM*
CCCC[C@@H](C)[C@@H](OC(=O)C[C@@H](CC(=O)O)C(=O)O)[C@H](C[C@@H](C)C[C@H](O)CCCC[C@@H](O)C[C@H](O)[C@H](C)N)OC(=O)C[C@H](CC(=O)O)C(=O)O,12%
CC[C@@H](O)C[C@H]1CCC[C@@]2(C[C@@H]3OC(=O)/C=C/[C@@](C)(O)[C@@H](O)[C@H](C)[C@@H](O)[C@H](OC4CCC(N(C)C)C(C)O4)[C@@H](O)[C@](C)(O)CCCCC/C=C/[C@@H]4CC(C)(C)O[C@@]4(O)C[C@H](O2)[C@H]3C)O1 (some centres not stated),-22%
CC(=O)Nc1ccccc1C(=O)OCc1ccc(C(=O)c2ccccc2)cc1,11%
CC(=O)c1c(O)c(C)c(O)c(Cc2c(O)c3c(c(C(=O)/C=C\c4ccccc4)c2O)OC(C)(C)C=C3)c1O,35µM*
CCn1ccnc1CN1CCCC(C(=O)c2cc(C)c(OC)c(C)c2)C1 (configuration not stated),8%
O=C(O)c1ccc(N=Cc2c(O)n(Cc3ccc(F)cc3)c(=O)[nH]c2=O)cc1,-24%

# In the list so far, 15 contain an aryl methoxy group:
SMILES,VDR inhibitor
COc1ccc(Br)cc1CN1CCN(C(=O)Cc2ccccc2)CC1,-2%
COc1ccc(C2CN(C)CC2C(=O)c2ccc(F)cc2)cc1Cl (configuration not stated),-5%
COc1ccc(-c2nn3c(=O)cc(CN4CCN(C(=O)COc5ccc(F)cc5)CC4)nc3s2)cc1,7%
COc1ccc(OC)c(CN2CCN(C(=O)Cc3ccccc3)CC2)c1,?
C=C(C)[C@]12C[C@@H](C)[C@@]34O[C@](Cc5ccccc5)(O[C@@H]1[C@@H]3C=C(COC(=O)Cc1ccc(O)c(OC)c1)C[C@]1(O)C(=O)C(C)=C[C@@H]41)O2,-13%
C=CCN1C[C@@H](C)N(C(c2ccc(C(=O)N(CC)CC)cc2)c2cccc(OC)c2)C[C@@H]1C (some centres not stated),-1%
COc1cc2c(c(OC)c1OC)-c1ccc(C(=O)O)cc1[C@@H](NC(C)=O)CC2,-15%
COc1ccccc1NC1=NCCS1,-15%
COc1cc(O)cc2c1C(=O)O[C@@H](C)CCCC(=O)CCCCC2,-21%
COc1ccc(-n2nc(C(=O)NCC(=O)N3CCC4(CC3)OCCO4)c3ccccc3c2=O)c(OC)c1,5%
COc1cc(CC2(CCc3ccncc3)C(=O)NC(=O)NC2=O)cc(OC)c1OC,14%
CCOC(=O)C(O)(c1ccc(N)c(OC)c1)C(F)(F)F (configuration not stated),-22%
COc1ccc(-n2c(O)c(C(C)=NCc3ccco3)c(=O)[nH]c2=O)cc1,-7%
COc1ccc(N2C(=O)NC(=O)/C(=C\c3ccc([N+](=O)[O-])s3)C2=O)cc1,71µM*
CCn1ccnc1CN1CCCC(C(=O)c2cc(C)c(OC)c(C)c2)C1 (configuration not stated),8%
